From PubChem BioAssay
UUG fidelity = yeast start codon fidelity modulation. activity score, % at 18.7 µM. S. cerevisiae UUG-firefly luciferase reporter, luminescence/redox ratio. 350,000 tested, 0.13% active. AID 602363;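 active = replicate mean at a twofold rise or more, about +100% in these data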;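 note: firefly luciferase made from a UUG start codon reports start codon fidelity; reporter light over untreated wells divided by growth signal over untreated wells; some hits fall short of that in this replicate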
MT1-MMP act inh = blocks activation of human MT1-MMP | P50281 | HT1080 RFP-PRO-GFP cells, GFP/RFP ratio fluorescence, overnight; percent of plate control window, DMSO zero | GFP/RFP ratio change, % at 20 µM | 360,000 tested, 0.061% active | AID 651647;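 active = GFP/RFP ratio change of at least 30% with cell ATP level not reduced by more than half and red fluorescence within 50% of control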; note: strong numbers were not always called active
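Test system: HT1080 RFP-PRO-GFP cells; Benchmarks: DMSO and RFP-L50D-GFP cell wells; Timing: cells overnight before dosing, compound overnight, 37 °C, 5% CO2; Compound: one 20 µM compound dose with 1% DMSO; Read-out: GFP/RFP fluorescence ratio.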
eIF4H inh = inhibitors of RNA binding by human eIF4H | inhibition, % at 35 µM | 290,000 tested, 0.94% active | eIF4H fluorescence polarization binding assay;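 active = 50% or more with normal probe brightness, or confirmed in later tests; inconclusive = above 50% with abnormal brightness, or retests that disagree; inactive = below 50% or failed in later tests; about a fifth of its hits are not listed in these tables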;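 note: calls also rest on retests at 20 µM and on dose response follow-up; 0% = protein and probe with vehicle and 100% = probe without protein; strong numbers were not always called active; many hits fall short of the cut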
PABP polyA inh = PABP-poly(A) binding inhibition; 290,000 tested, 1% active; PABP-poly(A) RNA binding, fluorescence polarization; inhibition, % at 35 µM;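 active = 50% or more with normal probe brightness, or confirmed in later tests; inconclusive = above 50% with abnormal brightness, or retests that disagree; inactive = below 50% or failed in later tests; about a fifth of its hits are not listed in these tables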;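 note: calls also rest on retests at 20 µM and on dose response follow-up; controls were probe without protein and protein plus probe with vehicle; some compounds called inactive have numbers as strong as hits; many hits fall short of the cut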
Target sequence (P11940 whole entry, looked up): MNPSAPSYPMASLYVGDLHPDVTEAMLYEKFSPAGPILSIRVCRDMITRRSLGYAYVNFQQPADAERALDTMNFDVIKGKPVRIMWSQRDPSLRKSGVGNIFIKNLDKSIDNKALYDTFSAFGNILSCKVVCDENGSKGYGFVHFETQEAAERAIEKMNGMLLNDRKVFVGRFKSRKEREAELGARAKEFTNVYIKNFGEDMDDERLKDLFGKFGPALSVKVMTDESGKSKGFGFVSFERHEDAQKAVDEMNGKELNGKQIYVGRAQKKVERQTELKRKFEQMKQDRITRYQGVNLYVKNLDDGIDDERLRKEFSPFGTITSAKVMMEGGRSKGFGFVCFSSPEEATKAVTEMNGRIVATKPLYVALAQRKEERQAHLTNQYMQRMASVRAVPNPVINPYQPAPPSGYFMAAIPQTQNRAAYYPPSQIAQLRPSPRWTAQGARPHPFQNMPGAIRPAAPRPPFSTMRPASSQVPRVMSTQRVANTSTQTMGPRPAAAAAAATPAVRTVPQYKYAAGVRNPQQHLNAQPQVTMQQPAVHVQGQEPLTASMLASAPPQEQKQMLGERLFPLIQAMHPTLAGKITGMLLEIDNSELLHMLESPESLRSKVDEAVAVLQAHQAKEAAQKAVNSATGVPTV
Rce1 inh = blocks yeast Ras-converting enzyme | 290,000 tested, 0.27% active | yeast membranes, quenched prenylated peptide cleavage fluorescence | Q03530 | calls only;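 active = fall in fluorescence gain of 50% or more versus controls, with final raw signal at or below 3038400; inconclusive = same 50% fall but final raw signal above 3038400; inactive = fall in fluorescence gain under 50%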;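 note: plate controls were neutral control wells for no effect and wells lacking membranes for full effect; tested at 10 µM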
Env fusion inh = inhibitors of HIV Env-mediated cell fusion | HeLa-JRFL Env/CEM21 cell fusion, luciferase | inhibition, % at 12.3 µM | 360,000 tested, 1.1% active;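 active = mean replicate inhibition score of at least 50 and every replicate individually at or above 50; inconclusive = only one of the two criteria met; inactive = mean below 50 and not all replicates reaching 50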;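 note: 0% = plate neutral controls and 100% = maraviroc near 300 nM; one replicate is shown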
CSC inhib = blocks cancer stem cells | inhibition, % at 7.5 µM | cancer stem cell-like cells viability, luminescence | AID 2717 | 300,000 tested, 1.1% active;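 active = mean at 75% or more and at least half the replicates too; inconclusive = mean and replicates disagree; tested in HMLE shEcad cells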;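 note: 0% = median of negative and 100% = median of positive control wells; the first replicate is given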
eIF4H inh retest = further read-out of eIF4H inh, marked with its call; inhibition, %; compound at 20 µM; confirmation average;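 mean of two retest wells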
PABP polyA inh retest = further read-out of PABP polyA inh, marked with its call; inhibition, %; compound at 20 µM; confirmation repeats;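 mean of two retest wells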
MT1-MMP act inh RFP = second read-out of MT1-MMP act inh, no call of its own (marks repeat the call); RFP signal change, %; measured here: RFP expression control read;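 0 = vehicle wells; hits needed this value within 50% of zero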
Numbers without * were called inactive; i = inactive; ? = inconclusive; · = no result given; & = joins results of further samples.

SMILES | UUG fidelity | MT1-MMP act inh | MT1-MMP act inh RFP | eIF4H inh | PABP polyA inh | Rce1 inh | Env fusion inh | CSC inhib | others
O=C(Nc1ccc2c(c1)OCO2)C1CC(=O)N(c2ccc3c(c2)OCCO3)C1 (stereo unspecified) | · | 5 | 3 | 4 | -10 | i | ? | -9
CC(=O)Nc1nc2ccccc2n1CCN(C)C | -17 | -5 | -3 | -2 | 6 | i | · | -10
Cn1cccc1C(=O)NC(=O)COC(=O)CC12CC3CC(CC(Br)(C3)C1)C2 | -5 | -3 | 0 | 0 | 2 | i | · | 15
CCOc1ccc(N/C(SC)=C(/C#N)C(N)=O)cc1 | -4 | 5 | -6 | 3 | 2 | i | · | -7
O=C(CN1C(=O)CCSc2ccccc21)Nc1ccc2c(c1)OCCO2 | -13 | 9 | 2 | -4 | -1 | i | -28 | -7
CN1CCN(CC(=O)NC23CC4CC(CC(C4)C2)C3)CC1 | · | 1 | 2 | 0 | 0 | i | 15 | -5
Cc1ccc(Oc2nc3ccccc3n3c(C)nnc23)c(C)c1 | -8 | 11 | 1 | -6 | -1 | i | -49 | -6
CC(NC(=O)C1CCC1)c1ccc(Cl)cc1 (stereo unspecified) | -14 | -3 | 0 | -5 | -8 | i | -32 | -16
Cc1cnc(CN2CCCC(C(=O)c3ccc4c5c(cccc35)CC4)C2)[nH]1 (stereo unspecified) | · | 2 | 2 | -7 | -8 | i | 11 | -15
COc1cccc(-n2c(Cc3cc(=O)[nH]c(=O)[nH]3)nnc2SC(C)C)c1 | 6 | -4 | 3 | 8 | 26 | i | 10 | -13

Nothing new here: an excerpt of the list.
SMILES | UUG fidelity | MT1-MMP act inh | MT1-MMP act inh RFP | eIF4H inh | PABP polyA inh | Rce1 inh | Env fusion inh | CSC inhib | others
O=C(Nc1ccc2c(c1)OCO2)C1CC(=O)N(c2ccc3c(c2)OCCO3)C1 (stereo unspecified) | · | 5 | 3 | 4 | -10 | i | ? | -9
CC(=O)Nc1nc2ccccc2n1CCN(C)C | -17 | -5 | -3 | -2 | 6 | i | · | -10
Cn1cccc1C(=O)NC(=O)COC(=O)CC12CC3CC(CC(Br)(C3)C1)C2 | -5 | -3 | 0 | 0 | 2 | i | · | 15
CCOc1ccc(N/C(SC)=C(/C#N)C(N)=O)cc1 | -4 | 5 | -6 | 3 | 2 | i | · | -7
O=C(CN1C(=O)CCSc2ccccc21)Nc1ccc2c(c1)OCCO2 | -13 | 9 | 2 | -4 | -1 | i | -28 | -7

(continued)
SMILES | UUG fidelity | MT1-MMP act inh | MT1-MMP act inh RFP | eIF4H inh | PABP polyA inh | Rce1 inh | Env fusion inh | CSC inhib | others
O=C(Nc1ccc(OC(F)(F)F)cc1)c1cc(S(=O)(=O)N2CCCCC2)ccc1N1CCOCC1 | -2 | 0 | -1 | · | · | · | 32 | ·
CCOC(=O)N1CCN(C(=O)c2ccc(OC)c(OC)c2)CC1 | -14 | 2 | 2 | -6 | -4 | · | -49 | ·
COC(=O)c1sccc1NC(=O)Nc1ccc(OC)cc1OC | -5 | -5 | -2 | -7 | -14 | i | -117 | -7
Cn1nnnc1SCc1nc2scc(-c3ccccc3)c2c(=O)[nH]1 | 2 | -2 | -11 | 4 | -1 | · | 7 | -8
O=C(NCc1ccc(F)cc1)c1cc2c(s1)CCCC2 | -15 | 7 | 1 | -6 | -4 | i | -83 | -4
COc1cc2c(cc1NC(=O)CCCCCN1C(=O)CCC1=O)oc1ccccc12 | 24 | 4 | -25 | 3 | 16 | i | -42 | 4
Cc1onc(C(=O)N2C(C)CCCC2C)c1[N+](=O)[O-] (stereo unspecified) | · | 0 | -1 | -7 | -14 | i | -8 | 1
CCOc1ccc2ccccc2c1/C=N/NC(=O)c1cc(C)[nH]n1 | -7 | 3 | 2 | -5 | 9 | i | -7 | -1
CC(C)c1ccc(CC(C)C2C3=C(CCCC3=O)OC3=C2C(=O)CCC3)cc1 (stereo unspecified) | -10 | -15 | -14 | -9 | -3 | i | · | 41
O=C(Cn1cc(S(=O)(=O)Cc2cccc(F)c2)c2ccccc21)N1CCOCC1 | -12 | -1 | 3 | -1 | 6 | i | -5 | -14

Brought forward from above: two entries, then new ones.
SMILES | UUG fidelity | MT1-MMP act inh | MT1-MMP act inh RFP | eIF4H inh | PABP polyA inh | Rce1 inh | Env fusion inh | CSC inhib | others
CC(C)c1ccc(CC(C)C2C3=C(CCCC3=O)OC3=C2C(=O)CCC3)cc1 (stereo unspecified) | -10 | -15 | -14 | -9 | -3 | i | · | 41
O=C(Cn1cc(S(=O)(=O)Cc2cccc(F)c2)c2ccccc21)N1CCOCC1 | -12 | -1 | 3 | -1 | 6 | i | -5 | -14
O=C(O)CSc1nc(-c2ccc(Cl)cc2)nc2c1oc1ccccc12 | -14 | -5 | -3 | -1 | 5 | i | · | 29
Nc1nnc(CSc2ccc(Cl)cc2)s1 | -7 | -7 | -7 | -8 | -4 | i | · | -9
Cc1ccc(S(=O)(=O)N/N=C/c2cccn2-c2ccc(Cl)cc2)cc1 | -3 | -1 | -2 | 1 | 8 | i | · | -7
O=C(NNC(=O)c1ccccc1[N+](=O)[O-])c1ccc(NC(=O)c2ccccc2)cc1 | -6 | 0 | -2 | 2 | -4 | i | -4 | 0
COCCNC(=S)N1CCN(Cc2cccc(OC)c2)CC1 | · | -1 | -2 | 3 | -14 | i | 0 | -10
COC(=O)c1cc(C(=O)OCC(=O)c2ccc[nH]2)cc([N+](=O)[O-])c1 | -17 | 1 | 0 | · | · | · | · | -4
O=C(O)CCC(=O)Nc1ccc(Br)cn1 | -4 | 4 | 6 | -10 | 4 | i | · | -3
Cc1ccc(C(=O)N/C(=C\c2sccc2C)C(=O)NCCCN2CCOCC2)cc1 | -5 | -1 | 2 | 14 | 6 | i | -9 | -13
CCOc1ccc(-c2cc(C(=O)Nc3cccc(C(F)(F)F)c3)[nH]n2)c(C)c1 | -9 | -1 | -3 | · | · | · | 20 | ·
Cc1cc(-c2nnc(SCC(=O)Nc3ccccc3C(F)(F)F)n2N)n[nH]1 | -21 | 2 | 3 | -7 | 0 | i | 2 | -11
Cc1ccc(NS(=O)(=O)c2ccc(-c3ccc(=O)[nH]n3)o2)cc1 | 3 | 7 | 4 | -16 | -7 | i | -8 | -3
CCN(CC)C(=O)C1=C(C)N(CCC2=CCCCC2)C(=O)C(CC(=O)NCc2cccc3ccccc23)C1 (stereo unspecified) | 19 | -4 | -11 | · | · | · | -96 | ·
CC(=O)N1C[C@H]2CON(C)[C@H]2C[C@H]1c1ccccc1Br | -18 | 2 | 7 | · | · | · | -47 | ·
Cc1ccc(C)c(N=Nc2nc3ccccc3n2C)c1 | -34 | 8 | 4 | 29 | 30 | i | · | 19
CCN(CC)CCN(C(=O)c1ccc(Br)s1)c1nc2cc3c(cc2s1)OCCO3 | · | -5 | -6 | -9 | 5 | i | 1 | 1
CCCOC(=O)CSc1nnc(-c2ccc(Cl)cc2Cl)o1 | · | 5 | 7 | -10 | -11 | i | · | ·
CCN1CCCC1CNC(=O)c1cc2c(OC)cccc2[nH]1 (stereo unspecified) | -11 | 0 | 4 | 7 | -2 | i | -8 | -16
CC(C)(C)c1ccc(CC(=O)N2CCC2(C)C(=O)Nc2cccc3cccnc23)cc1 (stereo unspecified) | 8 | 2 | 0 | · | · | · | 22 | ·
Cc1cc(C)c(C(=O)CSc2nnc(C)c(=O)[nH]2)cc1C | · | -3 | -3 | 0 | -12 | i | 3 | -6
Cc1cccc(NC(=O)C2CCCN(S(=O)(=O)c3c(C)nn(C)c3C)C2)c1 (stereo unspecified) | -4 | 0 | -2 | · | · | i | -246 | -21
COc1ccc(/C=N/NC(=O)c2ccn[nH]2)cc1COc1ccc(Cl)cc1Cl | -14 | -5 | -8 | -7 | 1 | i | · | 61
COc1ccc(C(=O)CC(SCC(NC(C)=O)C(=O)O)c2ccc(Cl)cc2)cc1OC (stereo unspecified) | 14 | -3 | -2 | 6 | 4 | i | -7 | 35
CN(CCc1ccccc1)C(=O)c1cccc(NC(=O)Cc2ccc([N+](=O)[O-])cc2)c1 | -4 | 2 | -12 | · | · | · | 18 | -7
CC1=C(C(=O)NC(C)C)C2(CCC(C)CC2)OC1=O (stereo unspecified) | -7 | 3 | 8 | 4 | 0 | i | 61* | -5
C[C@H](CO)N1C[C@H](C)[C@H](CN(C)C(=O)Nc2cccc(C(F)(F)F)c2)OCc2cnnn2CCCC1=O | -12&2 | 2 | 3 | · | · | · | 7 | ·
C=CCSc1nc2ccsc2c(=O)n1-c1cccnc1 | · | 1 | -1 | -9 | 6 | i | 14 | -5
COc1cc(/C=C/C(=O)O)cc(S(=O)(=O)NCCCC(=O)O)c1OC | · | -2 | 7 | -3 | 6 | i | 1 | -5
CCN(CC)S(=O)(=O)c1ccc(N/N=C(\C)c2ccncc2)nc1 | -26 | 0 | -3 | 10 | -5 | i | -6 | 40
CC1(c2cccc([N+](=O)[O-])c2)CC(C)(C)N(C(=O)c2ccccc2)c2ccccc21 (stereo unspecified) | 0 | -8 | -19 | -5 | -11 | i | 3 | 3
COc1cccc(CNC(=O)CCC2CCCN(c3cc(C)nc(N4CCCC4)n3)C2)c1 (stereo unspecified) | · | -9 | -11 | 3 | 12 | i | 15 | 2
COc1ccc(C2N(c3ccc(Cl)cc3)N=C(C(C)=O)N(C)N2C(C)=O)cc1 (stereo unspecified) | · | -11 | -9 | -10 | -5 | i | 0 | -8
O=C(O)c1ccc(Sc2nnnn2-c2ccccc2)c([N+](=O)[O-])c1 | -4 | 1 | -1 | 1 | 3 | i | -46 | 6
CCOC(=O)c1c(C)[nH]c(C(=O)/C(C#N)=C/c2ccc(OC(F)F)c(OC)c2)c1C | · | -37 | 5 | 70 | 1 | i | -23 | -20 | eIF4H inh retest=1;PABP polyA inh retest=1
O=C(c1ccc(CNc2c(N3CCCC3)c(=O)c2=O)cc1)N1CCN(C2CCCCC2)CC1 | -11 | 3 | 10 | -1 | -6 | i | 21 | 1
Cc1cc(C(=O)N2CCN(c3ncccn3)CC2)c2cc(F)ccc2n1 | -12 | 4 | -3 | 7 | 5 | i | · | -11
CCCCNC(=O)C(=O)NC(C)CCc1ccccc1 (stereo unspecified) | · | -1 | 0 | 6 | 0 | i | · | -5
CC1(C)c2[nH]c3ccccc3c2C[C@H]2C(=O)N(N)CC(=O)N21 | -11 | -3 | 0 | -9 | -2 | i | 0 | -11
N#Cc1c(-c2ccccc2)nc(SCC(=O)Nc2nnc(C(F)(F)F)s2)[nH]c1=O | · | 7 | 4 | -6 | 1 | i | -9 | 2
CCCCC(OC(=O)c1ccco1)C(=O)NCc1ccc(C)cc1 (stereo unspecified) | -14 | 0 | 2 | 4 | 6 | i | -7 | -12
CCOc1cc(N2CCOCC2)c(OCC)cc1NC(=O)COC(=O)COc1ccc(C#N)cc1 | 2 | 0 | 5 | -10 | -8 | i | 0 | -1
O=CN(CCN(C=O)CN1CCCCC1)CN1CCCCC1 | -13 | 2 | 0 | -2 | -7 | i | · | ·
COC(=O)CSc1nc2sccc2c(=O)n1-c1ccccc1 | -13 | -3 | 2 | 10 | 7 | i | 0 | -8
CCOc1cc(/C=N/NC(=O)Cc2ccc(C(F)(F)F)cc2[N+](=O)[O-])c(Br)cc1OC | · | 5 | 2 | -6 | -4 | i | 6 | 34
